AID504770: growth inhibition of E. coli YBA685, primary screen, V. cholerae RctB inhibitors; AID 504770, 2011; 130,000 compounds, 0.27% hits; E. coli YBA685 rctB-dependent plasmid, OD600 growth, 3 h; stronger effect = lower value; z-score (test concentration not listed);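 active means z-score under -2 on both plates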;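 further: wells of about 30 µL received 100 nL stock; score is relative to mean and SD of the test wells; the first replicate is given; strong numbers were not always called active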
CapD inh: Bacillus anthracis CapD inhibitors, primary screen, biochemical, fluorescence intensity; purified CapD enzyme, fluorescence intensity read-out; stronger effect = lower value; some hits fall short of the stated cut; 140,000 compounds, 0.23% hits; z-score (no concentration beside the values); CapD gamma-glutamyltranspeptidase (Bacillus anthracis Ames Ancestor);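 active means z-score under -4 in either of two replicates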;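 further: stock transfer was 100 nL into about 40 µL; score is relative to mean and spread of the plate; one replicate is shown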
Starred values were filed as active, the others as inactive. These rows are one share of the data (hit frequency here may not be typical).

The opening 5 entries as a preview:
For CCOC(=O)c1c2c(n3ccccc13)C(=O)c1ccccc1C2=O the results were AID504770 0.45 and CapD inh -0.08.
For Cn1c(C=C(C#N)C#N)ccc1S(C)(=O)=O the results were AID504770 1.95 and CapD inh -2.95.
Screening COc1ccc2c3c(cccc13)OCC2=O returned AID504770 0.25.
Screening COc1cccc(NC(=O)c2cn(C)c(=O)c3cc(OC)c(OC)cc23)c1 returned AID504770 -0.75 and CapD inh -0.2.
CC(=O)N1N=C(c2ccc(Cl)cc2)OC1c1ccc2c(c1)OCO2 (configuration not stated) was read as CapD inh 4.98.

This part in full, from the start:
For CCOC(=O)c1c2c(n3ccccc13)C(=O)c1ccccc1C2=O the results were AID504770 0.45 and CapD inh -0.08.
For Cn1c(C=C(C#N)C#N)ccc1S(C)(=O)=O the results were AID504770 1.95 and CapD inh -2.95.
Screening COc1ccc2c3c(cccc13)OCC2=O returned AID504770 0.25.
Screening COc1cccc(NC(=O)c2cn(C)c(=O)c3cc(OC)c(OC)cc23)c1 returned AID504770 -0.75 and CapD inh -0.2.
CC(=O)N1N=C(c2ccc(Cl)cc2)OC1c1ccc2c(c1)OCO2 (configuration not stated) was read as CapD inh 4.98.
For Cc1oc(-c2cccs2)nc1CS(=O)CC(=O)NC1CCCC1 (configuration not stated) the results were AID504770 0.95 and CapD inh 0.19.
COc1ccc(Cl)c2c1NC(c1cc(Br)c(OC)c(OC)c1)C1CC=CC21 (configuration not stated) was read as CapD inh -0.395.
Screening CC1Cc2ccccc2N1C(=O)C1CC(=O)N(c2ccccc2)C1 (configuration not stated) returned AID504770 2.35.
For Cc1ccc(-n2c(C)c(C)c3c2N=CN2CCS(=O)(=O)N=C32)cc1 the results were AID504770 0.35.
COc1cccc(-c2nnc(-c3ccc(NC(=O)C(F)(F)F)cc3)o2)c1 was read as AID504770 0.05 and CapD inh 11.
Screening CCCCc1nnc(NC(=O)CCCN2C(=O)/C(=C/c3ccccc3)SC2=S)s1 returned AID504770 0.7 and CapD inh 0.83.
`N#Cc1cc(-c2ccc(Cl)cc2)cn(Cc2c(Cl)cccc2Cl)c1=O` gave CapD inh 0.58.
For CN(C)c1oc(-c2ccccc2Cl)nc1P(=O)(c1ccccc1)c1ccccc1 the results were CapD inh 63.6.
For O=C(CSc1nc2ccc(NC(=O)c3ccccc3Br)cc2s1)NC1CC1 the results were CapD inh 0.6.
Screening O=C(CN1CCOCC1)Nc1cc(C(F)(F)F)cc(C(F)(F)F)c1 returned CapD inh -0.535.
O=C(O)CSc1ccc2c3c(cccc13)CC2 was read as AID504770 -0.25 and CapD inh 7.89.
Screening CSc1ccc(S(=O)(=O)N2CCOCC2)cc1 returned AID504770 2.1 and CapD inh -0.965.
CN(Cc1ccccc1)S(=O)(=O)c1ccc(N2CCOCC2)c(C(=O)NCCCN2CCCC2=O)c1 was read as CapD inh -0.55.
`COc1ccc(CNC(=O)C(C)On2nnc3ccccc32)cc1` (configuration not stated) gave AID504770 -0.3.
`O=C(NCc1ccc2[nH]c3c(c2c1)CCCC3)C1CCCC1` gave AID504770 -0.15 and CapD inh 0.74.
For COc1ccc(-c2n[nH]c(=O)[nH]2)cc1 the results were AID504770 -0.55 and CapD inh 0.62.
Screening CCOc1cc(C(=O)NCc2ccc3[nH]c(C)cc3c2)cc(OCC)c1OCC returned AID504770 -0.25 and CapD inh -1.82.
`Cc1sc(Nc2ccccc2N2CCOCC2)nc1-c1ccc(-c2ccccc2F)cc1` gave CapD inh 0.265.
Screening c1ccc2oc(-c3nn4c(Cn5nnc6ccccc65)nnc4s3)cc2c1 returned AID504770 -0.1 and CapD inh 5.94.
`O=C1CC(c2cccc([N+](=O)[O-])c2)CC2=C1C(c1ccco1)N(C(=O)c1ccccc1)c1ccccc1N2` (configuration not stated) gave CapD inh -1.31.
NC(=O)CSc1nc2ccccc2s1 was read as AID504770 -0.5 and CapD inh -0.665.
CSc1nc(COc2ccc(C(C)(C)C)cc2)nc(-n2cccc2)c1C#N was read as AID504770 1.3 and CapD inh 10.3.
`CCOC(=O)c1ccc(Nc2cc(C)nc(NCc3ccccc3)n2)cc1` gave CapD inh 69.2.
`CCCC(=O)NCc1nc2ccccc2n1C` gave AID504770 -0.1 and CapD inh 3.43.
Screening CC1(C)CC(CC(=O)O)(c2ccc(F)cc2)CCO1 (configuration not stated) returned AID504770 0.8 and CapD inh 0.69.
`O=C1SCCC1NS(=O)(=O)c1ccccc1` (configuration not stated) gave AID504770 0.05 and CapD inh -0.515.
For C=CCSc1nnc(NC(=O)Cc2coc3c(C)c(C)ccc23)s1 the results were AID504770 1.4 and CapD inh -0.39.
COc1ccccc1N1CCN(Cc2cccc3ccccc23)CC1 was read as AID504770 0.15 and CapD inh 0.995.
Screening Cc1ccc(Oc2ccccc2NC(=O)CN2CSCC2=O)cc1 returned AID504770 -0.4.
For CC(C)(C)C(=O)NC1CCN(CC(=O)Nc2ccccc2)CC1 the results were AID504770 -0.3.
Cc1cc(NC(=O)Cn2c(COc3ccc4ccccc4c3)nc3ccccc32)no1 was read as AID504770 -0.65.
For N/C(=N\O)c1ccccn1 the results were AID504770 -0.1 and CapD inh 0.17.
CN1CCCC(OC(=O)c2cccnc2Cl)C1 (configuration not stated) was read as AID504770 0.05 and CapD inh -0.015.
For Cc1sc(-n2cccc2)c(C(=O)NC2CCCCCC2)c1C the results were AID504770 0.9.
`O=C(Cn1cnc2sc3c(c2c1=O)CCCC3)NCCCC(=O)N1CCN(c2cccc(Cl)c2)CC1` gave CapD inh -0.395.
For COc1cc(C2OCC3(COC(C)=O)C(C)C=C(C)C2C3C)ccc1OC(C)=O (configuration not stated) the results were CapD inh 0.235.
Screening O=C(COC(=O)c1ccc2c(=O)n3c(nc2c1)CCCCC3)c1ccc(S(=O)(=O)N2CCCCC2)cc1 returned AID504770 0.15.
Screening CCOC(=O)c1c(C=O)oc2c(C)cc(OC(=O)c3cccc(Br)c3)c(Br)c12 returned CapD inh 0.21.
`CCOC(=O)N1CCN(C(=O)C2CC(=O)N(c3ccccc3)C2)CC1` (configuration not stated) gave AID504770 0.05 and CapD inh -0.195.
`O=C(c1ccccc1)c1ccc(NC(=O)c2cccs2)cc1` gave AID504770 -0.15 and CapD inh -3.36.
For CN(C)C1N(C(=O)c2ccc(Br)cc2)N=C2c3ccccc3S(=O)(=O)N21 (configuration not stated) the results were CapD inh -0.26.
`COc1ccccc1C(=O)Nn1cnc2ccccc2c1=O` gave AID504770 -0.4 and CapD inh 0.12.
`O=C1CC(c2c[nH]c3ccccc23)C(=O)N1c1ccccc1` (configuration not stated) gave AID504770 -0.75 and CapD inh -0.33.
`CC1=NOC(=O)/C1=C/c1ccc(-c2ccccc2)o1` gave AID504770 -0.55 and CapD inh -0.26.
Screening O=C(Cc1ccccc1)OCn1nnc2ccccc2c1=O returned AID504770 -1.55.
Cc1ccc(N2CCN(/N=C/C3=C(N4CCOCC4)C(=C\c4ccccc4)/CC3)CC2)cc1 was read as AID504770 2.2.
For CCOC(=O)C1(C)/C(=N\Nc2ccc(OC)cc2)C(=O)C(=O)N1c1ccccc1 (configuration not stated) the results were CapD inh -0.055.
CCCC(CCC)C(=O)Nc1c2c(nc3c1CCC3)CCCC2 was read as AID504770 -0.65 and CapD inh -0.125.
For C=CCn1c(SCC(=O)NCc2ccco2)nc2sc(C)c(C)c2c1=O the results were CapD inh -0.125.
`Cc1ccc(-c2cc(C(F)(F)F)n3nc(C(=O)NCCCN4CCOCC4)cc3n2)cc1` gave CapD inh 2.08.
`OCC1OC(Nc2ccccn2)C(O)C(O)C1O` (configuration not stated) gave AID504770 -1.9 and CapD inh -0.04.
c1ccc(-c2nnc(-c3cccnc3)o2)cc1 was read as AID504770 -0.55 and CapD inh 8.19.
Screening CSc1ncc2c(=O)n(C(C)C)ccc2n1 returned AID504770 0.9 and CapD inh 7.42.
For CC1C/C(=C\c2ccc(Br)cc2)C(=O)/C(=C/c2ccc(Br)cc2)C1 (configuration not stated) the results were CapD inh 0.075.
Screening CCc1ccc(C2=CC(c3cccc(Br)c3)C(C#N)C(=O)N2)cc1 (configuration not stated) returned AID504770 0.2 and CapD inh 1.5.
Screening NNC(=O)CCn1nnc(-c2cccc(Cl)c2Cl)n1 returned CapD inh 0.53.
Screening O=C(COC(=O)CN1C(=O)CCOc2ccccc21)Nc1ccc(F)cc1 returned AID504770 0.25.
`Cc1cc(C)nc(NC2=NS(=O)(=O)c3ccccc3N2C)n1` gave CapD inh 0.16.
For COc1ccc(-c2nc(-c3c4ccccc4cc4ccccc34)[nH]c2-c2ccc(OC)cc2)cc1 the results were CapD inh -0.34.
Screening Cc1nn(-c2ccccc2)nc1CNC(=O)COc1ccccc1 returned AID504770 -1.3 and CapD inh 0.325.
`COC(=O)C1(C(C)C)NC(c2ccccc2OC)C2C(=O)N(C)C(=O)C21` (configuration not stated) gave AID504770 -0.65.
Screening CN(C)CCOC(=O)c1ccccc1O returned AID504770 0.6 and CapD inh 0.94.
For c1ccc(CCn2nnnc2CN2CCCc3ccccc32)cc1 the results were AID504770 -1.
Cc1noc(C)c1C(=O)NCc1ccc2c(c1)OCO2 was read as AID504770 -0.2 and CapD inh 1.25.
`O=C(O)CN1C(=O)/C(=c2\sc3nc4ccccc4n3c2=O)c2ccccc21` gave AID504770 -0.25.
Screening Cc1c(O)c(CN2CCOCC2)cc2c(-c3ccccc3)cc(=O)oc12 returned AID504770 -0.8 and CapD inh 0.985.
Cn1c2c(c(=O)n(C)c1=O)C(CC(=O)O)C(=O)N2 (configuration not stated) was read as AID504770 1.85 and CapD inh -0.15.

Part of the list above in order of formula weight, low to high.
Cn1c2c(c(=O)n(C)c1=O)C(CC(=O)O)C(=O)N2 (configuration not stated) was read as AID504770 1.85 and CapD inh -0.15.
Screening CC1(C)CC(CC(=O)O)(c2ccc(F)cc2)CCO1 (configuration not stated) returned AID504770 0.8 and CapD inh 0.69.
`CCOC(=O)N1CCN(C(=O)C2CC(=O)N(c3ccccc3)C2)CC1` (configuration not stated) gave AID504770 0.05 and CapD inh -0.195.

Additional compounds
Screening Cc1cs/c(=N\C(=S)Nc2ccccc2)n1C returned AID504770 1.75 and CapD inh -0.72.
Screening N#Cc1ccccc1CCl returned AID504770 1.8 and CapD inh -0.965.
N#Cc1c(N2CCOCC2)nn2cc(C(=O)c3ccccc3O)cnc12 was read as AID504770 -0.45.
`CC(=O)c1sc(-c2ccc(C(C)(C)C)cc2)cc1N` gave CapD inh 3.04.
`NC(Cn1cccn1)c1ccccc1` (configuration not stated) gave AID504770 1.05 and CapD inh -1.23.
Screening CCOc1ccc(CCn2cnc3sc4c(c3c2=N)CCCC4)cc1OCC returned AID504770 1.1 and CapD inh 0.49.
Screening Cn1nc(C(=O)NCc2ccc(F)cc2)c2c1-c1ccccc1OC2 returned AID504770 0.35 and CapD inh 1.18.
C=CCn1c(SCC(=O)N2CCOCC2)nnc1-c1cc(Br)ccc1O was read as AID504770 0.2 and CapD inh 0.08.
For NCC1CCC(N)C(OC2C(N)CC(N)C(OC3OC(CO)C(O)C(N)C3O)C2O)O1 (configuration not stated) the results were CapD inh -0.395.
`O=C(CBr)Nc1nnc(-c2ccc(Cl)cc2)s1` gave AID504770 -0.65 and CapD inh inactive.
`Nc1nc(NC(=O)c2ccco2)nn1-c1ccccc1` gave AID504770 0.4 and CapD inh -0.155.
CCOC(=O)c1oc2ccccc2c1CSc1nc2cc(S(=O)(=O)N(C)C)ccc2o1 was read as AID504770 0.9.
`CCn1c(C)nnc1SCC(=O)NC1CCCCCC1` gave AID504770 2.9 and CapD inh -0.485.
`CCCCCOC(=O)CSc1nnc(-c2ccccc2)c(=O)[nH]1` gave CapD inh -0.65.
For COCCN=c1scc(-c2cccs2)n1/N=C(\C)c1ccco1 the results were AID504770 0.85.
`O=C(Cc1noc2ccccc12)NC1CCCCCC1` gave AID504770 -0.1.
`Cn1c(=O)c([N+](=O)[O-])c(N2CCCC2)c2ccccc21` gave CapD inh -0.005.
Screening CCOC(=O)C1CN(S(=O)(=O)c2ccccc2)CCN1S(=O)(=O)c1ccccc1 (configuration not stated) returned AID504770 -0.8 and CapD inh -0.305.
Cc1ccc2[nH]c(=O)c(CN(CC3COCCO3)C(=O)Nc3ccccc3F)cc2c1 (configuration not stated) was read as AID504770 -0.95.
`CC(=O)NCCOc1ccc(C)c(C)c1` gave AID504770 1.4 and CapD inh 0.45.
Screening O=S(=O)(CCc1ccncc1)c1ccccc1 returned AID504770 -0.65 and CapD inh 0.24.
`CC1CCc2c(sc(NC(=O)COC(=O)Cn3cnc4c3c(=O)n(C)c(=O)n4C)c2C#N)C1` (configuration not stated) gave AID504770 0.55.
`Nc1ccc(O)c(C(=O)O)c1` gave CapD inh -0.235.
For O=C(C1=NNCC1c1ccccc1)c1ccccc1 (configuration not stated) the results were AID504770 -0.2 and CapD inh -1.61.
Screening O=C(Cn1c(=O)n(CCC(=O)NC2CCCC2)c(=O)c2ccccc21)NCc1ccco1 returned AID504770 -0.55 and CapD inh -0.165.
`CCN(Cc1ccccc1)C(=O)CSc1nc2ccccc2s1` gave AID504770 0.5 and CapD inh 0.48.
For O=C(O)c1ccccc1N=Nc1c(O)[nH]c2ccccc12 the results were AID504770 -0.05.
Cc1ccc(CNC(=O)C2CCN(S(C)(=O)=O)CC2)cc1 was read as AID504770 -0.35 and CapD inh 19.5.
Cn1nc(-c2ccccc2)cc1NC(=O)C1CCCCC1 was read as AID504770 0.75 and CapD inh -0.83.
For CC1CC(=O)C2=C(C1)Nc1ccccc1NC2c1ccccc1 (configuration not stated) the results were AID504770 -0.05 and CapD inh -3.62.
